TAR Tat displ: HIV-1 TAR-Tat binding disruption; HIV-1 TAR RNA, Tat peptide displacement FRET; active compounds read high; z-score (concentration not given with the values); hit rate 0.6% among 100,000; AID 1259389;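 note: score is relative to mean and SD of negative controls; some compounds called inactive have numbers as strong as hits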
CDC25B-CDK2 inh: human CDC25B-CDK2/CyclinA binding inhibition; P30305+P24941; hit rate 0.72% among 94,000; z-score (concentration not given with the values); HTRF CDC25B-CDK2/CyclinA binding, anti-His/anti-Flag; active compounds read high;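 note: score is relative to mean and SD of negative controls; strong numbers were not always called active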
Numbers without * were called inactive; nt = no result given.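 Rule for the calls: active = z-score from 3 up in half or more of its runs; inactive = the rest.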

SMILES	TAR Tat displ	CDC25B-CDK2 inh
CCCCN(C1CCN(C(C)=O)CC1)S(=O)(=O)c1csc(C(N)=O)c1	-0.21	nt
O=C(Nc1ccc2c(c1)OCCO2)C1CCCN(c2cnc3ccccc3n2)C1 (configuration not stated)	0.67	nt
CCOC(=O)NNc1ncc(C(F)(F)F)cc1Cl	nt	-0.33
Cc1nnsc1C(=O)N/N=C/c1ccc([N+](=O)[O-])s1	nt	-2.08
CC(C)(O)c1ccccc1CC[C@@H](SCC1(CC(=O)O)CC1)c1cccc(/C=C/c2ccc3ccc(Cl)cc3n2)c1	-0.92	nt
COc1ccccc1-n1cc(-c2ccccc2)c2c(NCCN(C)C)ncnc21	-0.46	-0.9
CCc1ccc(C2C(C(=O)OC)=C(C)Nc3nc4ccccc4n32)cc1 (configuration not stated)	-0.82	-1.81
CCCn1c2ccccc2c2cnn(CC(=O)NCCCN3C(C)CCCC3C)c(=O)c21 (configuration not stated)	0.63	nt
CCOC(=O)c1sc(NC(=O)Cc2csc(C)n2)nc1C	0.96	-0.36
CC(=O)Nc1ccc(S(=O)(=O)Nc2nc(C)cc(C)n2)cc1	nt	-1.5
Cc1cc(C(=O)N=S(C)(=O)c2cccs2)no1 (configuration not stated)	nt	2.14
CC(NC(=O)Cn1ncc2ccsc2c1=O)c1ccc2c(c1)OCCO2 (configuration not stated)	-0.87	-0.49
CCCNc1ncnc2c1cnn2-c1ccc(F)cc1	1.38	nt
Cn1c(=O)n(Cc2ccc(Cl)cc2)c(=O)c2c1nc1n2CCN1Cc1ccccc1	2.58	nt
CN(C)c1nc(N)c(C(=O)N=C(N)N)nc1Cl	0.49	-0.27
N/C(COc1ccc(Cl)cc1Cl)=N\OC(=O)Nc1ccc(Cl)cc1	nt	-0.72
CC1CCN(C(=O)c2cnc3sc4c(n3c2=O)CCCC4)CC1	1.51	nt
CCN(CC)CCOC(=O)c1ccc2nc(N)sc2c1	2.86	-0.63
N#CC1=C(SCC(=O)Nc2ccc(Cl)cc2)NC(=O)C(C#N)C12CCCCC2 (configuration not stated)	nt	0.14
CSc1cc(-c2cccs2)nc(-c2ccc(Cl)cc2)n1	nt	-2.61
NCCCS(=O)(=O)O	1.27	-0.58
CCn1nnc(NCc2ccc(OCc3ccc(Cl)cc3)cc2)n1	1.32	nt
CN(C)S(=O)(=O)N1CCC(c2nn(-c3ccccc3)c(=O)o2)CC1	1.88	-1.05
Cc1cc(=O)n2[nH]c(-c3ccccc3)cc2n1	0.78	0.49
CC1CCCN(C(=O)CCS(=O)(=O)c2cc(Br)cc3c2N(C(=O)C2CC2)CC3)C1 (configuration not stated)	0.16	-0.96
CSc1ncc(C(=O)O)c(C)n1	0.35	nt
O=S(=O)(c1ccccc1)c1cnc2ccc(Cl)cc2c1NCc1ccccc1	-0.05	-0.24
Cc1ccc2oc(C(=O)N(Cc3ccco3)C3CCS(=O)(=O)C3)cc(=O)c2c1 (configuration not stated)	2.08	-2.17
COc1ccc(-c2nnc3ccc(SC)nn23)cc1OC	nt	-1.93
O=C(CCS(=O)(=O)c1cccc2nsnc12)N1CCN(c2cccc(Cl)c2)CC1	-0.61	-1.35
COc1ccc(OC)c(NC(=O)C2=Cc3cc(Br)ccc3OC=C2)c1	1.3	-1.29
Fc1ccc(Cn2c3ccccc3c3nn4cnnc4nc32)cc1	nt	-0.37
CCN1c2ccccc2NC2=C(C(=O)CC(C)(C)C2)C1c1ccc(C)cc1 (configuration not stated)	-0.45	nt
COc1ccc(Cn2c(CO)cnc2SC2CCCC2)cc1	0.36	nt
Cc1ccc(S(=O)(=O)NCc2cccnc2)cc1-c1nnc2c3ccccc3c(C)nn12	0.24	0
Oc1c(CN2CCOCC2)cc(Cl)c2cccnc12	1.8	nt
CCOC(=O)c1c(N)n(-c2ccc(Cl)cc2)c2nc3ccccc3nc12	nt	-1.71
O=C(NCCN1CCOCC1)C1CCN(c2nnc(-n3cccc3)s2)CC1	2.06	-0.46
COC(=O)Cn1c2ccc(Cl)cc2c2nc3ccccc3nc21	0.17	19.3*
CCC(C)C(C(=O)O)N1C(=O)c2ccccc2C1=O (configuration not stated)	nt	-1.1
CCc1ccc(-c2[nH]c3c(c2-c2sc(C)c(C(=O)OC)c2O)c(=O)n(C)c(=O)n3C)cc1	-0.85	-2.79
CC(C)(C)C1(C)OC(O)(C(Cl)(Cl)Cl)CC1=O (configuration not stated)	nt	-1.73
COc1ccc(OC)c(C2SCCN2S(=O)(=O)c2ccc(C)cc2)c1 (configuration not stated)	1.11	-2.14
O=C(CC(=O)N1CCN(C2CCCCC2)CC1)Nc1ccc2nc3n(c(=O)c2c1)CCCCC3	2.93	-1.24
N=c1c(C(N)=O)cc2c(=O)n3ccccc3nc2n1Cc1ccco1	nt	-0.98
Cc1c(/C=C(/C#N)S(=O)(=O)c2ccc(Cl)cc2)sc2ccc(Cl)cc12	nt	-2.15
COc1ccc(-c2c3c(=O)n(C)c(=O)n(C)c3c3n2C(C)(C)COC3CC(C)C)cc1 (configuration not stated)	-0.56	-1.54
O=C1S/C(=C\c2cc(Br)c(O)c(Br)c2)C(=O)N1c1ccccc1	nt	1.86
COc1ccc(N(C)S(=O)(=O)c2ccc3c(c2)oc(=O)n3C)c(OC)c1	nt	-1.72
CCCCN(CC)C(=O)C(=O)c1c(C)n(C)c2ccccc12	nt	-1.54
CCOC(=O)c1cc(-c2ccc(S(=O)(=O)Nc3cc(C)ccn3)s2)on1	-6.94	nt
CCC(=O)Nc1ccc2c(c1)nc1n2CCN(C(C)C)C1	-8.83	0.82
CCCOc1cccc(C2c3c(oc4cc(C)c(C)cc4c3=O)C(=O)N2c2nccs2)c1 (configuration not stated)	-3.56	-0.29
CCOC(=O)c1cc(=O)[nH]c2ccccc12	1.18	nt
CC1(C)CC(=O)C=C(OC(=O)c2ccc(Cl)cc2)C1	nt	-0.45
Cn1cnnc1SCC(=O)Nc1ccc2nc(SCc3cccc4ccccc34)sc2c1	nt	-1.05
O=C(Nc1nnc2n1CCCS2)c1ccccc1F	1.97	nt
O=S(=O)(Nc1cc(C(F)(F)F)cc(C(F)(F)F)c1)c1ccccn1	nt	-0.54
COC(=O)c1cc(NC2c3ccccc3C(=O)N2CCN2CCOCC2)cc(C(=O)OC)c1 (configuration not stated)	1.48	-1
CC(NC(=O)CSc1nc2ccccc2c(=O)[nH]1)c1ccccc1 (configuration not stated)	2.87	nt

Next results:
SMILES	TAR Tat displ	CDC25B-CDK2 inh
CC(C)NC(=O)c1sc(=S)n2c1[nH]c(=O)c1ccc(C(=O)NC(C)c3ccccc3)cc12 (configuration not stated)	0.68	nt
CC1Cc2cc(S(=O)(=O)N(C)CC(=O)N(C)Cc3ccco3)ccc2N1C(=O)C1CC1 (configuration not stated)	1	nt
O=C(CCc1nc(-c2ccco2)no1)Nc1ccc(Cl)cc1	-0.39	-0.47
Cc1ccc(-c2noc(CN(C(=O)NC3CCCCC3)C(C)C)n2)cc1	0.66	-1.3
FC(F)(F)C1(C(F)(F)F)N=C(c2cccnc2)OC(N2CCOCC2)=N1	nt	0.58
Cc1cccc(CSCCNS(=O)(=O)c2ccc3c(c2)OCCO3)c1	nt	-0.03
COc1ccc(OC)c(C2CCN(C(=O)Cn3c(=O)oc4cc(Cl)ccc43)C2)c1 (configuration not stated)	0.76	nt
O=C(Nc1ccc(F)cc1)C1Sc2nnc(-c3ccccc3)n2NC1c1ccc(F)cc1 (configuration not stated)	-0.16	-2.34
O=C(CCCN1C(=O)c2cccnc2Oc2ccc(Cl)cc21)N1CCN(c2ccccn2)CC1	0.96	nt
O=C1CC(c2ccc(F)cc2)Cc2nc(Nc3ccc(F)cc3)ncc21 (configuration not stated)	0.95	0.07
CCN(CC)CCNC(=O)c1c(O)c2c([nH]c1=O)CCCC2	1.8	nt
Cc1[nH]nc(-n2cnnc2)c1NS(=O)(=O)c1ccc(C(C)C)cc1	0.53	-2.39
O=C(Oc1ccc(Cl)cc1Cl)c1cccnc1SCCS(=O)(=O)c1ccccc1	nt	-1.17
Cc1cccc(-c2noc(COc3cccc(C)c3C)n2)c1	nt	0.47
CCN(CC)C(=O)c1c(NC(=O)c2ccco2)sc2c1CCC(C(C)(C)C)C2 (configuration not stated)	0.18	-0.79
O=C(NC1CCCC1)c1cc2c(s1)CS(=O)(=O)C2	0.85	-0.65
CC(C)Cn1cc(NC(=O)Nc2ccc3c(c2)OCO3)c2ccccc2c1=O	-0.96	nt
CCOc1cc(C(Nc2ccccn2)c2ccc3cccnc3c2O)ccc1OC (configuration not stated)	nt	-1.25
Cc1ccc(S(=O)(=O)[C@H]2CS(=O)(=O)C[C@@H]2NCc2ccccc2Cl)cc1	-1.76	0.51
CCOc1ccc(-n2nnnc2CNS(=O)(=O)N(C)C)cc1	0.1	nt
COc1ccc(C2C(C#N)=C(N)Oc3c2ccc2ccccc32)cc1 (configuration not stated)	-0.34	-1.26
COc1ccccc1NC(=O)c1oc2ccccc2c1NC(=O)c1ccco1	1.99	-1.17
Cc1ccc(-c2nc(NCCCN3CCOCC3)c3ccccc3n2)cc1	-0.57	-0.79
Cc1ccc2nc(Cc3ccc4nc(N)sc4c3)[nH]c2c1	-0.54	-2.49
O=C(Cc1ccc(O)cc1)NCCNC(=S)NCc1ccccc1	nt	-0.5
Cc1ccn2cc(CNS(=O)(=O)c3cc(F)ccc3F)nc2c1	nt	-1.31
CC1=C(c2ccc(F)cc2)S(=O)(=O)N=C1N1CCCC1	1.59	nt
Cn1c(SCc2ccccc2)nc(=O)c2c1NC(=O)CC2c1cc(F)cc(F)c1 (configuration not stated)	-1.36	-1.17
CC(C)C(=O)Nc1ccccc1OCc1cc(=O)n2ccccc2n1	1.48	nt
CCN1CCN(c2cc3c(cc2F)c(=O)c(S(=O)(=O)c2ccccc2)cn3C)CC1	-0.82	nt
COc1ccc2c(c1)c(=O)oc1cc(O)ccc12	2.4	-0.47
Cc1ccc(C)n1-c1ccc(S(N)(=O)=O)cc1	nt	0.9
Cc1ccsc1CCNC(=O)CCc1nnc2ccc(N3CCCC3)nn12	-0.93	nt
Cn1cnc2c(=O)oc3ccc(S(=O)(=O)NCCc4ccc(Cl)cc4)cc3c21	-0.33	nt
CC(C)NC(=O)c1cc(-c2ccncc2)nc2ccccc12	nt	-2.54
CN1CCN(CCNC(=O)C2CCCN(c3ncnc4c3nc3n4CCCCC3)C2)CC1 (configuration not stated)	0.1	nt
O=S(=O)(NCC(c1ccco1)N1CCN(c2ccc(F)cc2)CC1)c1cccs1 (configuration not stated)	1.24	nt
COc1cc(C2CC(=O)NC3=C2C(=O)CC(c2cccs2)C3)cc(Br)c1O (configuration not stated)	-0.9	-0.97
O=c1c2ccccc2nc(/C=C/c2ccc(O)cc2)n1Cc1ccccc1	-0.72	-1.18
Cc1nn2c(-c3ccco3)ccnc2c1-c1ccc(Br)cc1	-2.65	-1.46
CN1CCN(C(=O)Cn2ncc3c2-c2ccccc2OC3)CC1	2.05	-0.16
NC(=O)c1nnn(-c2cccc(Cl)c2)c1N	1.4	-0.55
CC(=O)N1c2ccccc2C(=O)C1N1CCN(c2ccccc2)CC1 (configuration not stated)	-0.71	nt
Cn1ncc2c(NC(C)(C)C)ncnc21	0.47	nt
CCCCOC(=O)c1c(C)oc2ccc(NS(=O)(=O)c3ccc(F)cc3)cc12	1.28	-0.59
O=c1[nH]nc(CSc2ccc(Cl)cc2)c2ccccc12	nt	0.95
COc1ccc(OC)c(S(=O)(=O)NCc2ccco2)c1	nt	-0.54
CCC(C)NC(=O)C1CCCN(S(=O)(=O)c2ccc3c(c2)CCCN3C(C)=O)C1 (configuration not stated)	1.22	nt
CC(CS(=O)(=O)c1ccc2c(c1)NC(=O)C(C)S2)C(=O)N(C)Cc1ccco1 (configuration not stated)	-0.7	nt
COC(=O)c1ccc(N2CC(O)=C(c3nc4ccccc4s3)C2=N)cc1	1.47	-0.02
O=C(CSc1nnc(-c2ccccc2)o1)OCc1ccccc1	-0.19	-2.49
CCN(CC)c1ccc(C2C3=C(CC(C)(C)CC3=O)Nc3ncnn32)cc1 (configuration not stated)	-2.61	-0.38
CCC(c1ccc(O)cc1)C(CC)c1ccc(O)cc1 (configuration not stated)	0.57	nt
C=CCN1C(=O)C(O)(CC(=O)c2ccc(OC)cc2)c2cc(Br)ccc21 (configuration not stated)	nt	-0.21
COC(=O)c1nc2n(n1)C(c1ccc(F)cc1)C1=C(CC(C)(C)CC1=O)N2 (configuration not stated)	-0.05	-1.37

14 of the compounds above, with two lines to a compound:
Second line of a record – TAR Tat displ	CDC25B-CDK2 inh
> CCCCN(CC)C(=O)C(=O)c1c(C)n(C)c2ccccc12
    nt	-1.54
> CCOC(=O)c1cc(-c2ccc(S(=O)(=O)Nc3cc(C)ccn3)s2)on1
    -6.94	nt
> CCC(=O)Nc1ccc2c(c1)nc1n2CCN(C(C)C)C1
    -8.83	0.82
> CCCOc1cccc(C2c3c(oc4cc(C)c(C)cc4c3=O)C(=O)N2c2nccs2)c1 (configuration not stated)
    -3.56	-0.29
> CCOC(=O)c1cc(=O)[nH]c2ccccc12
    1.18	nt
> CC1(C)CC(=O)C=C(OC(=O)c2ccc(Cl)cc2)C1
    nt	-0.45
> Cn1cnnc1SCC(=O)Nc1ccc2nc(SCc3cccc4ccccc34)sc2c1
    nt	-1.05
> O=C(Nc1nnc2n1CCCS2)c1ccccc1F
    1.97	nt
> O=S(=O)(Nc1cc(C(F)(F)F)cc(C(F)(F)F)c1)c1ccccn1
    nt	-0.54
> COC(=O)c1cc(NC2c3ccccc3C(=O)N2CCN2CCOCC2)cc(C(=O)OC)c1 (configuration not stated)
    1.48	-1
> CC(NC(=O)CSc1nc2ccccc2c(=O)[nH]1)c1ccccc1 (configuration not stated)
    2.87	nt
> CC(C)NC(=O)c1sc(=S)n2c1[nH]c(=O)c1ccc(C(=O)NC(C)c3ccccc3)cc12 (configuration not stated)
    0.68	nt
> CC1Cc2cc(S(=O)(=O)N(C)CC(=O)N(C)Cc3ccco3)ccc2N1C(=O)C1CC1 (configuration not stated)
    1	nt
> O=C(CCc1nc(-c2ccco2)no1)Nc1ccc(Cl)cc1
    -0.39	-0.47

Screens (PubChem BioAssay)

Compounds were not picked by outcome; overall some 0.87% were active at least once.
